From PubChem
GIV Gai3 FP: inhibitors of GIV GBA-motif binding to rat Galpha-i3; 0.42% of 210,000 active; AID 1224905; Galpha-i3/FITC-GIV peptide fluorescence polarization, 90 min; active compounds read low; scaled: aluminum fluoride 0%, vehicle 100%; percent of control (FP), % (concentration not given with the values);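 active = replicate mean at 85% of control or lower, very high polarization wells dropped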;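 note: wells of about 15 µL received 100 nL stock; the first replicate is given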
Target sequence (P08753 whole entry, looked up): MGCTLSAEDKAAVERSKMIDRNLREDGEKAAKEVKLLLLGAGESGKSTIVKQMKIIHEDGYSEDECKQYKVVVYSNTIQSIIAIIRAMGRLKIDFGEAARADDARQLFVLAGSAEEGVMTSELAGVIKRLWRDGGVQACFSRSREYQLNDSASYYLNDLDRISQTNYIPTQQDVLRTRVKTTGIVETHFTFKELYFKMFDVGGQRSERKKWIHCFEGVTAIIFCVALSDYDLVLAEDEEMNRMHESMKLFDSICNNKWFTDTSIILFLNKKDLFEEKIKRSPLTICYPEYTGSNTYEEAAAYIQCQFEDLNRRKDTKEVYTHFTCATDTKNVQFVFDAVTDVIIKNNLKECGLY
Sa growth inh: blocks Staphylococcus aureus growth | S. aureus RN4220 growth, OD600, 20 h, 42 °C; active compounds read low | relative growth, % (concentration not given with the values) | 0.53% of 170,000 active | AID 720641;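 active = growth at 42 °C up to 50% and 20 or more points under that at 30 °C, or under 10% at both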;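 note: 300 nL library stock went into each well; scaled to the means of positive and negative controls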
HCMV NEC inh: inhibitors of HCMV UL50-UL53 nuclear egress complex interaction. inhibition, % (concentration not given with the values). 0.15% of 190,000 active. AID 1918969. HTRF UL50-UL53 interaction, normalized percent inhibition;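 active = both replicates at 50% or more, plus weaker picks with an unusually low signal ratio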;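 note: stock transfer was 100 nL into about 20 µL; 0% = negative control wells and 100% = wells with untagged competitor protein; inactives centre near -12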
Sa growth inh second temp: also measured in Sa growth inh; calls as there; relative growth, %; measured here: growth at 30 °C;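 optical density after 20 h as mean of two plates; 100% = untreated growth and lower means inhibition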
An asterisk follows results filed as active; nt = not tested or not shown; & = joins results of further samples. The order is random. About 0.82% of those tested had a hit in this group.

SMILES	GIV Gai3 FP	Sa growth inh	Sa growth inh second temp	HCMV NEC inh
Cc1ccc(-c2nccc(N3CCC(C(=O)NC(C)CCc4ccccc4)CC3)n2)cc1 (configuration not stated)	104	nt	nt	-19
Cc1cccc(NC(=O)CN(c2ccc(C(C)C)cc2)S(=O)(=O)c2c(C)nn(C)c2C)c1C	103	104	94	-2
COc1ccc(Cn2c(CCC(=O)NCc3ccc(Cl)cc3)nc3cccnc32)cc1	101	99	79	14
Cc1cc(N2CCOCC2)ccc1/C=c1\sc2nc3ccccc3n2c1=O	157	123	93	-4
CCOc1ccc(C(C)NC(=O)c2cccnc2OCC)cc1OCC (configuration not stated)	nt	98	98	-12
COC(=O)c1ccc(OCC(O)Cn2cc(/C=N/O)c3ccccc32)cc1 (configuration not stated)	101	96	70	-30
CCc1ccc(OCc2cc(=O)n3c4c(sc3n2)CCCC4)cc1	100	100	88	-18
O=C(CCN1C(=O)C2CC=CCC2C1=O)Nc1cc(C(F)(F)F)ccc1-n1cncn1 (configuration not stated)	nt	104	98	-1
COc1ccc(C(=O)OCC(=O)NCc2ccccc2)cc1	nt	89	85	-18
Cc1ccc(CSc2nc3ccc(NC(=O)COc4ccc(F)cc4)cc3s2)cc1	100	90	84	-30
CNC(=O)c1ccc2c(c1)N(Cc1ccccc1Cl)C(=O)c1ccccc1S2	105	82	82	nt
N#Cc1ccc(OCC(=O)NCCCN2CCCC2=O)cc1	nt	88	92	-6
Cc1cc(C)c(NC(=O)C2COc3ccccc3O2)c(C)c1 (configuration not stated)	105	110	98	1
Cc1ccccc1Cn1nnc2c(=O)[nH]c(C3CCCN(C(=O)c4ccc(F)cc4)C3)nc21 (configuration not stated)	107	104	94	6
CC1Oc2ccccc2N(CC(=O)N2CCN(c3ccc(=O)n(-c4ccccc4)n3)CC2)C1=O (configuration not stated)	101	nt	nt	-56
Cn1c(=O)c2c(c3ccccc31)OC(=O)CC2c1ccccc1 (configuration not stated)	111	123	99	nt
CC(=O)N1c2ccc(S(=O)(=O)NCC3CCC(C(=O)NC(C)(C)C)CC3)cc2CC1C (configuration not stated)	104	123	93	nt
Cc1[nH]c2ccccc2c1C(c1ccncc1)N1CCCC1 (configuration not stated)	nt	79	94	2
COC(=O)c1ccc2c(=O)n3nc(N)sc3nc2c1	106	81	85	nt
CCOC(=O)C1CCC(CN(Cc2ccc(OC)cc2)S(=O)(=O)c2ccc(F)c(C(=O)Nc3cc(C)ccc3C)c2)CC1 (configuration not stated)	102	113	86	nt
CCOc1cc(NC(=S)NCCCN2CCOCC2)c(OCC)cc1NC(=O)C1CC1	94	85	105	-19
Cc1ccc(CNC(=O)CCCn2c(=O)[nH]c3ccc(Br)cc3c2=O)cc1	100	107	96	-6
CC(=O)N1c2ccccc2CC1C(=O)N1CCN(c2ccc(F)cc2)CC1 (configuration not stated)	106	104	97	nt
Cn1c(CNC(=O)CSc2nc(-c3ccccc3F)nc3cc(=O)[nH]n23)nc2ccccc21	96	90	89	nt
Cc1ccc(C)c(N2CCN(C(=O)c3cc4ccc5cccnc5c4[nH]3)CC2)c1	103	75	63	nt
O=C1NC2(O)/C(=N/NC(=O)c3ccccc3O)c3ccccc3C2(O)N1 (configuration not stated)	106	88	80	-5
S=c1oc2ccc(Cl)cc2n1Cc1ccccc1	101	87	84	-36
O=S1(=O)CC(NCc2ccccc2)C(Nc2ccc(Cl)cc2)C1 (configuration not stated)	103	140	78	-4
COC(=O)c1cc(S(=O)(=O)N2c3ccccc3CC2C)cn1C (configuration not stated)	100	99	87	nt
CCn1cc(S(=O)(=O)c2cc(C)cc(C)c2)c(=O)c2cc(F)c(N3CCN(c4ccccc4)CC3)cc21	107	122	99	nt
O=C1c2ccccc2C(=O)N1CCCCSc1nnnn1-c1ccccc1	nt	115	92	-4
CCOC(=O)c1ccc(N2C(=O)c3n[nH]c(-c4cccs4)c3C2c2ccc(Cl)cc2Cl)cc1 (configuration not stated)	100	124	104	-6
COCCN(Cc1nc2ccccc2c(=O)[nH]1)C(=O)c1cn2c(C)cccc2n1	nt	99	84	-20
NS(=O)(=O)c1ccc2c(c1)C1C=CCC1C(C1CC=CCC1)N2 (configuration not stated)	138	107	58	nt
CC(C)N(CCC(=O)N1CCNCC1)C(=O)c1ccc(Cl)cc1	109	nt	nt	-3
NNC(=O)CNc1nc2ccccc2s1	nt	106	94	2
COc1ccc(NC(=O)c2cccs2)cn1	99	100	100	-1
CCOc1ccc(NC(=O)NCc2cccn2Cc2ccccc2)cc1	102	96	100	nt
Cc1c(CCNC2=CC(=O)OC23CCCCC3)c2ccccc2n1C	nt	100	89	4
CCc1ccc(NC(=S)N(CCCN2CCCC2)Cc2ccco2)cc1	100	109	84	nt
Cc1oc2ncn(CC(=O)N3CCC(C)CC3)c(=O)c2c1C	105	nt	nt	-28
CC12CC(NC(=O)N1c1ccccc1)c1ccccc1O2 (configuration not stated)	99	91	87	-4
O=c1c(S(=O)(=O)c2ccccc2)cn(Cc2ccccc2)c2cc(N3CCCC3)c(F)cc12	111	92	97	nt
c1ccc(-c2noc(CSc3nnnn3C3CCCCC3)n2)cc1	104	99	80	-6
COc1ccc(/C(C)=N/O)cc1CN1CCCC1	107	116	86	-16

Single records (already shown):
CC(C)N(CCC(=O)N1CCNCC1)C(=O)c1ccc(Cl)cc1 is entered as GIV Gai3 FP: 109; Sa growth inh: nt; Sa growth inh second temp: nt; HCMV NEC inh: -3
Cc1c(CCNC2=CC(=O)OC23CCCCC3)c2ccccc2n1C is entered as GIV Gai3 FP: nt; Sa growth inh: 100; Sa growth inh second temp: 89; HCMV NEC inh: 4

Carrying on:
SMILES	GIV Gai3 FP	Sa growth inh	Sa growth inh second temp	HCMV NEC inh
Cc1cc(/C=C(\C#N)C(=O)OCc2cc(=O)oc3cc(O)ccc23)c(C)n1CC(C)C	nt	102	85	-11
CN(CC(=O)N1CCCCC1)S(=O)(=O)c1ccc2c(c1)c(=O)n(C)c(=O)n2C	113	74	97	0
CCC(C(=O)Nc1ccc(OC)c(OC)c1)c1ccccc1 (configuration not stated)	96	106	98	7
CC1CCN(S(=O)(=O)c2ccc3c(ccn3CC(=O)N3CCc4ccccc4C3)c2)CC1	104	nt	nt	-9
Cc1cc(N2OCc3ccccc3CO2)ccc1N	nt	129	77	-79
COc1ccc(Cl)cc1C(=O)Nc1cccc(N2CCCS2(=O)=O)c1	103	nt	nt	-7
N#Cc1c(NC(=O)CSc2ccccc2)sc2c1CCCC2	99	nt	nt	-26
COc1ccc(-c2nnn(CC(=O)N(c3ccccc3)C(C(=O)NC3CCCC3)c3ccco3)n2)cc1 (configuration not stated)	100	48*	69*	-6
ClCc1nc(Cl)c2c3c(sc2n1)CCCC3	nt	107	88	6
CCc1ccc(NC(=O)C(=O)NCC(c2ccc3c(c2)OCO3)N2CCN(C)CC2)cc1 (configuration not stated)	100	109	96	nt
COc1ccc(NC(=O)CN2NS(=O)(=O)c3ccccc3C2=O)cc1Cl	nt	83	94	-24
CCn1cnc2nc(N)[nH]c(=O)c21	108	95	86	-9
COc1cc(Cc2cc(OC)c(C)cc2OC)c(OC)cc1C	97	98	83	-33
N#Cc1ccc(C(=O)CN2C(=O)S/C(=C\c3ccccc3)C2=O)cc1	nt	96	100	7
O=c1onc(-c2ccccc2)n1-c1cccc(C(F)(F)F)c1	112	93	94	-11
CCCc1cc(=O)[nH]c(SCC(=O)c2cc(C)n(-c3nccs3)c2C)n1	nt	94	85	-26
CC1CCCN(CCCNC(=O)C2CCCN(c3ncnc4c3nc3n4CCCCC3)C2)C1 (configuration not stated)	100	97	86	nt
COc1ccc(-c2cc3nc(C)cc(NC(C)C)n3n2)cc1OC	108	nt	nt	-16
CCN(CC)C(=O)CN1C(=O)C2(OCC(C)(c3ccccc3)CO2)c2ccccc21 (configuration not stated)	103	98	105	-2
Cc1cc(C)cc(NC(=O)CN2C(=O)CCc3cc(S(=O)(=O)N4CCCCC4)ccc32)c1	101	76	92	nt
O=C(COC(=O)C1(c2ccc(F)cc2)CCCC1)NCc1ccco1	nt	108	96	-18
O=C(NCCOc1ccccc1)c1ccccc1Cl	nt	121	88	-6
CCn1c(=NC(=O)C2CC2)sc2cc(Br)ccc21	103	118	79	0
N#C/C(=C\c1cccs1)Sc1nc2ccccc2s1	115	104	108	-16
CN1C=NC(O)(c2ccccc2)c2cc(Cl)ccc21 (configuration not stated)	108	116	92	2
CCOCCOC(=O)C1=C(C)NC2=C(C(=O)CCC2)C1c1cc(OC)c(OC)cc1Br (configuration not stated)	97	nt	nt	-6
Cc1nn(C)c(C)c1CCNC(=O)Nc1ccccc1	104	nt	nt	-16
Cc1cc2c(cc1NC(=O)c1ccc(C(C)(C)C)cc1)n(C)c(=O)c(=O)n2C	102	94	92	nt
COc1ccc(S(=O)(=O)N2CCCCC2C(=O)O)cc1OC (configuration not stated)	105	110	100	nt
COc1ccc(CCn2c(N)cc(=O)[nH]c2=O)cc1OC	nt	129	88	-3
COc1ccc(C2NN=C3c4[nH]c5ccc(C)cc5c4CCC32)cc1 (configuration not stated)	152	101	71	nt
c1ccc(-c2[nH]ncc2CN2CCc3ccccc3C2)cc1	104	92	91	-22
COC(=O)CSc1nc(C)nc(SC)c1C#N	100	102	90	-17
COc1ccc(Cc2nc3c4c5c(sc4ncn3n2)C(C)(C)NC(C)(C)C5)cc1	105	nt	nt	-13
COc1cccc(-c2ocnc2C(=O)NCc2ccccc2Cl)c1	105	nt	nt	0
Cc1cc(C)c2nc(N3CCC(C(=O)NCC4CCCO4)CC3)sc2c1 (configuration not stated)	105	96	83	-1
CCCn1cnc2c(sc3nc4c(cc32)CSC(C)(C)C4)c1=O	100	119	97	-15
O=C(O)CC(c1ccccc1)n1cnnn1 (configuration not stated)	nt	88	87	-7
CC(=O)Nc1ccc(NS(=O)(=O)c2cc(Cl)sc2Cl)cc1	95	112	92	-3
CCn1c(SCC(=O)OCC(=O)Nc2cccc(C(F)(F)F)c2)nnc1-c1ccco1	nt	108	83	-35
O=C(CSc1nnc2c(n1)[nH]c1ccccc12)NCc1ccco1	nt	91	84	-47
CCc1ccc(CNC(=O)c2ccc(-n3c(C)cc4c3CCC(C)C4)cc2)cc1 (configuration not stated)	109	79	105	nt
N[C@@H](Cn1ccc(=O)c(O)c1)C(=O)O	100	nt	nt	-15&-21
O=C(CCSc1nc(-c2ccco2)cc(C(F)(F)F)n1)NCCc1ccccc1	99	108	88	nt
COC(=O)c1ccc(CSC(=N)N)o1	103	110	87	-10

Quoted from above, 15 compounds:
SMILES	GIV Gai3 FP	Sa growth inh	Sa growth inh second temp	HCMV NEC inh
O=c1onc(-c2ccccc2)n1-c1cccc(C(F)(F)F)c1	112	93	94	-11
CCCc1cc(=O)[nH]c(SCC(=O)c2cc(C)n(-c3nccs3)c2C)n1	nt	94	85	-26
CC1CCCN(CCCNC(=O)C2CCCN(c3ncnc4c3nc3n4CCCCC3)C2)C1 (configuration not stated)	100	97	86	nt
COc1ccc(-c2cc3nc(C)cc(NC(C)C)n3n2)cc1OC	108	nt	nt	-16
CCN(CC)C(=O)CN1C(=O)C2(OCC(C)(c3ccccc3)CO2)c2ccccc21 (configuration not stated)	103	98	105	-2
Cc1cc(C)cc(NC(=O)CN2C(=O)CCc3cc(S(=O)(=O)N4CCCCC4)ccc32)c1	101	76	92	nt
O=C(COC(=O)C1(c2ccc(F)cc2)CCCC1)NCc1ccco1	nt	108	96	-18
O=C(NCCOc1ccccc1)c1ccccc1Cl	nt	121	88	-6
CCn1c(=NC(=O)C2CC2)sc2cc(Br)ccc21	103	118	79	0
N#C/C(=C\c1cccs1)Sc1nc2ccccc2s1	115	104	108	-16
CN1C=NC(O)(c2ccccc2)c2cc(Cl)ccc21 (configuration not stated)	108	116	92	2
CCOCCOC(=O)C1=C(C)NC2=C(C(=O)CCC2)C1c1cc(OC)c(OC)cc1Br (configuration not stated)	97	nt	nt	-6
Cc1nn(C)c(C)c1CCNC(=O)Nc1ccccc1	104	nt	nt	-16
Cc1cc2c(cc1NC(=O)c1ccc(C(C)(C)C)cc1)n(C)c(=O)c(=O)n2C	102	94	92	nt
COc1ccc(S(=O)(=O)N2CCCCC2C(=O)O)cc1OC (configuration not stated)	105	110	100	nt

Remaining list, next part.
SMILES	GIV Gai3 FP	Sa growth inh	Sa growth inh second temp	HCMV NEC inh
CC(C)(O)C(=O)/C=C/c1ccc(Cl)cc1	89	108	61	-7
Cc1cccc(CS(=O)(=O)Cc2ccc(C(=O)NCc3ccc(F)cc3)o2)c1	102	102	85	nt
CCc1ccccc1NC(=O)Cn1nnc(C(=O)NCc2cccc(OC)c2)c1N	100	76	81	nt
COc1ccc2c(c1)CCc1sc(NC(=O)c3ccc(Cl)cc3)nc1-2	102	90	89	-20
Nc1cnn(C2OC(COC(=O)c3ccccc3)C(O)C2O)c(=O)n1 (configuration not stated)	nt	105	92	2
CC(C)CNc1nc(NC(C)(C)C)nc(Oc2ccc(=O)n(-c3ccccc3)n2)n1	101	90	87	-19
CC(C)(CNc1nsc2ccccc12)N1CCOCC1	nt	78	91	-17
CCOC(=O)c1cc(C)nc(S(C)(=O)=O)c1C#N	99	95	76	-17
CN(C)c1ccc(NC(=O)COC(=O)Cc2ccc(Br)cc2)cc1	nt	107	101	16
O=C(O)CCCc1nc2ccccc2s1	101	97	84	-40
CN1CCN(S(=O)(=O)c2ccc(Br)cc2)CC1	nt	81	94	-8
CCOc1ccc(CCNC(=O)c2cc3c(s2)-c2c(C)cccc2OC3)cc1	104	101	87	-32
